Source: PubChem BioAssay (National Center for Advancing Translational Sciences (NCATS))
Menin MLL FP FL – menin-MLL binding inhibition, fluorescein peptide | Fluorescence polarization, fluorescein-MLL peptide displacement from menin | FP activity change, % at 61.4 µM | 290,000 tested, under 10 active | AID 1766; inconclusive = falling polarisation curve, or a change in total fluorescence; inactive = total fluorescence flat and polarisation flat or rising; no compound was filed as active; the % refers to the polarisation; negative = inhibition;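 note: % of control where 0% means no effect; inhibitors lower the polarisation; unlabelled MLL peptide was the positive control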
The depositor's hits bear a star; ? = inconclusive; & = joins results of further samples; [ ] = another dose, or the depositor's remark.

SMILES | Menin MLL FP FL
COc1cc(C(=O)NC2CCCNC2)cc(OC)c1OC (stereo not given) | 1.9
C/C(=N\NC(=O)c1ccc2nc[nH]c2c1)c1ccc([N+](=O)[O-])cc1 | -2.1
COc1ccc2c(c1)O[C@H](c1ccc3c(c1)OCO3)[C@@H](OC(=O)N[C@H](C)C1CCCCC1)C2=O | -0.6&-0.5
CCOC(=O)CCN1C(=O)[C@H]2[C@@H]3[C@H](O)C=CC(=O)[C@H]3CC[C@H]2C1=O | 0.0[11.7 µM]
CC(C)(C)c1cc(O)c(C(C)(C)C)cc1O | -16
COc1ccc(C(=O)N2CCC3(CCN(Cc4cc(C(F)(F)F)cc(C(F)(F)F)c4)CC3)CC2)cc1 | -6.4
CCOc1ccc(Cc2nccc3cc(OCC)c(OCC)cc23)cc1OCC | 5.9
COc1ccc(Oc2ncc3nc(-c4ccc(F)cc4)c(=O)n(CCC#N)c3n2)cc1 | -3.0
C#CCCCO/N=C1/C[C@@H](O)[C@@H](O)[C@@H]2[C@@H]3C(=O)N(CC)C(=O)[C@H]3CC[C@@H]12 | 5.2[11.7 µM]
CC(=O)OCCC(C)CCC=C(C)C (stereo not given) | -4.6
FC(F)(F)c1ccccc1-c1ccc2ncnc(NCCN3CCOCC3)c2c1 | 0.2
CC(C)N1CCC2(CC1)C(C#N)=C(N)NC(S)=C2C#N | ?
COC(=O)C(CN)c1c[nH]c2ccc(OC)cc12 (stereo not given) | -0.6
CCOC(=O)N/N=C1/C[C@@H](O)[C@@H](O)[C@@H]2[C@@H]3C(=O)N(C(C)(C)C)C(=O)[C@H]3CC[C@H]12 | 1.2[11.7 µM]
COc1cccc2sc(Nc3nc(-c4ccccn4)cs3)nc12 | -1.4
COc1c(O)cc(O)cc1O | -5.6
O=c1c(-c2cc(F)cc(F)c2)nc2cncnc2n1Cc1ccccc1 | 1.4
Cn1c(=O)[nH]c(=O)c2c1nc(N1CCCCCC1)n2CCCSc1nnnn1-c1ccccc1 | 3.0
COC(=O)C/C=C\[C@@H](C)[C@@H](/C=N\O[C@@H](C)c1cn([C@H]2COC[C@H]2O)nn1)NS(=O)(=O)c1ccc(C)cc1 | 0.1[11.7 µM]
CC(=O)N1CCC[C@@]2(CCN(C(=O)Nc3ccccc3)C2)C1 | -5.0
COc1ccc(C2=Nn3c(nnc3-c3ccccc3O)SC2)cc1OC | 0.5
COc1ccc(C(=O)C2C3C4COC(O4)C(=O)C3C3C=Cc4ccccc4N32)c(OC)c1 (stereo not given) | ?
CC(=O)OC1C[C@]2(C)[C@@H](CC(O)C3[C@]4(C)CCC(O)C(C)[C@@H]4CC[C@]32C)/C1=C(/CCC=C(C)C)C(=O)O (stereo not given in full) | 1.6
O=c1oc2ccccc2cc1-c1csc(Nc2nc3ccc(F)cc3s2)n1 | 5.9
CCCCCCCC(=O)N/N=C(\C)c1ccc(N)cc1 | 1.1
CCCCNc1nc(C)nc2c1nc(-c1ccccc1)n2CCN(C)C | -0.7
COc1ccccc1CNc1ccnc(-c2cccnc2)n1 | -0.5
Cc1ccc(Sc2ccccc2CN(C)C)c(N)c1 | 1.8
C[C@@H]1O[C@H]2C3=C(C(=O)[C@H]4O[C@@H]4[C@H]3O)[C@@H]1[C@@H]1[C@@H](C)OC=C3[C@H](O)[C@H]4O[C@@H]4/C(=N\OCc4ccccc4)[C@]312 | -1.4[11.7 µM]
COc1ccc(N2CCN(C(=O)c3ccc4c(c3)NC(=O)C(CSCc3c(F)cccc3Cl)N4)CC2)cc1 (stereo not given) | 11
O=c1c(CCc2ccccc2)nc2cncnc2n1Cc1ccc(F)cc1 | 6.8
COc1cc(/C=C2/C(=N)N3C(=NC2=O)SN=C3S(=O)(=O)C(C)C)ccc1OS(=O)(=O)c1ccccc1 | 13
CCC(C)C(=O)OC1C2CC3=C4CC(=O)OC(c5ccoc5)[C@]4(C)CCC3[C@@](C)(C2=O)C(CC(=O)OC)C1(C)C (stereo not given in full) | 3.5
O=C(Nc1cc(Cl)cc(Cl)c1)C(NCCCO)c1ccccc1 (stereo not given) | 2.0
N#CCCN(CC#Cc1ccccc1)OCc1ccccc1 | 2.0[11.7 µM]
CCNc1ncc2nc(-c3cn(C)c4ccccc34)c(=O)n(Cc3cccc(OC)c3)c2n1 | ?
CCC(C)C(=O)O[C@H]1C[C@@H](C)C=C2C=C[C@H](C)[C@H](CC[C@@H]3C[C@@H](O)CC(=O)O3)C21 (stereo not given in full) | -12
Oc1ccc(/C=N/Nc2ccc(C(F)(F)F)cn2)c(O)c1 | 12
COC(=O)CNC(=O)[C@@]1(C)C=C[C@@H](Cc2ccccc2)N1C(C)=O | -0.4
NCc1c(O)ccc2ccccc12 | 2.4
CC(C)C[C@H](N)CSSC[C@@H](N)CC(C)C | 3.6
COc1ccc(/C(C)=N/Nc2cc(C(F)(F)F)ccc2Cl)c(OC)c1 | 1.9
CSCC[C@H](NC(=O)[C@H](Cc1c[nH]c2ccccc12)NC(=O)CCNC(=O)OC(C)(C)C)C(=O)N[C@@H](CC(=O)O)C(=O)N[C@@H](Cc1ccccc1)C(N)=O | 2.9
COc1ccc(N2CCCn3c2nc2c3c(=O)n(CCCc3ccccc3)c(=O)n2C)cc1 | 3.4
CN(C)c1ccc(-c2cncnc2NCCN2CCOCC2)cc1 | -1.8
CCOCC(=O)Nc1ccc(C(=O)Nc2ccccc2Cl)cc1 | -0.9
Cc1noc(C)c1-c1nccc(N(C)Cc2ccco2)n1 | 4.1
CN(C)C(=O)/N=N/C(=O)N(C)C | -1.0
COc1cc(C(=O)Oc2ccc3c(OC)c4ccoc4nc3c2OC)cc(OC)c1OC | -2.8
C=C(C)C(O)/C=C/C=C/c1ccccc1 (stereo not given) | -0.2[11.7 µM]
COc1ccccc1NC(=O)C(=O)NNC(=O)COc1ccc2ccccc2c1 | -0.4
CCC1(c2ccc(OC)cc2)NC(=O)N(C)C1=O (stereo not given) | -3.2
O=C1[C@@H]2Cc3c([nH]c4ccccc34)C(c3cccc([N+](=O)[O-])c3)N2C(=O)CN1C1CCN(Cc2ccccc2)CC1 (stereo not given in full) | -14
CCc1ccc(N2CCCn3c2nc2c3c(=O)n(CCN3CCOCC3)c(=O)n2C)cc1 | 2.1
CS(=O)(=O)N1CCC2(CCCN(c3ncccn3)C2)CC1 | -2.4
COc1ccc(-c2cc(=O)c3c(O)c(OC)c(O[C@@H]4OC(COC5OC(C)C(O)C(O)[C@@H]5O)C(O)C(O)C4O)cc3o2)cc1 (stereo not given in full) | 6.3
COc1ccc(-c2nc3cnc(OC)nc3n(Cc3ccc(F)cc3)c2=O)cc1 | -1.4
CC(C)(S)[C@H](N)C(=O)O | -0.7
O=C1NN(c2ccccc2)C(=O)/C1=C/c1cccs1 | 2.0
Cc1cnc(CNc2ccnc(-c3ccc(C(=O)N(C)C)cc3)n2)cn1 | -3.4
Following part:
SMILES | Menin MLL FP FL
CCCCCN(C)CCC(O)(P(=O)(O)O)P(=O)(O)O | 4.0
C=C1CCC(=O)C(C)CCC2C1CC2(C)C (stereo not given) | -5.7
O=C(Cn1nnc2ccccc21)OCC(=O)c1ccc(Cl)cc1 | -1.1
O=C(NCCCCN1CCN(c2cccc(Cl)c2Cl)CC1)c1ccc2c(c1)Cc1ccccc1-2 | -1.2
N=c1oc2cc(O)ccc2cc1C(=O)Nc1ccccn1 | ?
COc1ccc(C(=O)CC(=O)c2c(O)cc(OC)cc2OC)cc1 | -4.4[11.7 µM]
CN1C(=O)N(C)C2=NNC=NC2(O)C1=O (stereo not given) | -7.1
Cc1ccc(C(O)C2=CCCC2=O)cc1 (stereo not given) | -2.1
O=CN/C=C/c1cc(F)cc(F)c1F | 1.5
NC[C@@H](O)c1ccc(O)c(O)c1 | -7.2&0.3
O=C(CN1C(=O)/C(=C/c2c(F)cccc2Cl)Oc2ccccc21)NCc1ccco1 | -0.6
CCCCCCCCCCCCCCCC(=O)NCCCC(=O)O | -4.7
COc1cccc(-c2nnc(N(C)C(=O)c3ccno3)s2)c1 | 2.9
CCOc1ccccc1-c1nnc2n1N=C(c1cccc(OC)c1)CS2 | -10
COc1ccc(CNc2cc(-c3ccccc3Cl)ncn2)c(OC)c1 | -1.5
CCc1c(C)nc(N)n2c(SCC(=O)N3CCN(c4ccccc4F)CC3)nnc12 | 0.5
CCn1c(=O)c(C(=O)Nc2cnccn2)c(O)c2ccccc21 | 7.3
Cc1ccc(-c2c(=O)n(OCc3ccccn3)c3ccccc3[n+]2[O-])cc1 | -2.2
COc1ncc2nc(-c3ccc(F)cc3)c(=O)n(C)c2n1 | ?
CO[C@@H]1COC(=O)[C@H](C)NC(=O)[C@@H](C)COC(=O)CCC[C@H]1C | 0.1[11.7 µM]
Cc1cccc(C2=N[C@@H](CC(C)C)CO2)c1 | 7.8[138 µM]
N#Cc1cccc(NC(=O)N2CCC3(CC2)CCN(C(=O)c2cnccn2)CC3)c1 | -0.2
COC1C(O)C(CO)OC1n1cnc2c(=O)[nH]c(N)nc21 (stereo not given) | 0.0
CC(C)CC(=O)N[C@H](C(=O)N[C@H](C(=O)N[C@@H](CC(C)C)[C@H](O)CC(=O)N[C@@H](C)C(=O)N[C@@H](CC(C)C)[C@H](O)CC(=O)O)C(C)C)C(C)C | -1.1[24.8 µM]
C[C@H](NCCc1ccc(O)cc1)[C@@H](O)c1ccc(O)cc1 | 1.8[24.8 µM]
Cn1cccc1C(=O)N1CCC[C@@]2(CCN(Cc3cc(C(F)(F)F)cc(C(F)(F)F)c3)C2)C1 | 2.6
CN[C@H]1[C@@H](O[C@@H]2[C@H](O[C@@H]3[C@@H](O)[C@@H](O)[C@@H](N=C(N)N)[C@@H](O)[C@@H]3N=C(N)N)O[C@H](C)[C@@]2(O)C=O)O[C@@H](CO)[C@@H](O)[C@H]1O | 1.1[24.8 µM]
c1cn(-c2cc(-c3ccc4c(c3)OCO4)ncn2)cn1 | 1.2
O=C(c1cccc(F)c1)N1CCC2(CCN(Cc3ccncc3)CC2)CC1 | -0.7
CCNc1ncc2nc(-c3ccccc3)c(=O)n(-c3ccc(OC)cc3)c2n1 | ?
CC(C)C(=O)SCCCCCCC(=O)Nc1nc(-c2ccccc2)cs1 | -3.5
COCC(=O)N1CCC2(CC1)CCN(C(c1ccccc1)c1ccccc1)CC2 | -0.1
Cc1cccc(-c2cc(=O)c3cc(Br)ccc3o2)c1 | -7.3
N#Cc1ccc(CN2CCC3(CCNCC3)CC2)cc1 | -1.1
CC(=O)O[C@@H]1C(=O)[C@@]2(C)[C@H](O)C[C@H]3OC[C@]3(OC(C)=O)[C@@H]2[C@H](OC(=O)c2ccccc2)[C@@]2(O)C[C@H](OC(=O)[C@@H](O)[C@@H](NC(=O)c3ccccc3)c3ccccc3)C(C)=C1C2(C)C (stereo in doubt) | 3.4[24.8 µM]
C=C(C)C(O)/C=C/c1ccc(C)cc1 (stereo not given) | -4.0[11.7 µM]
C=CCn1c(=N)c(C(=O)OC)cc2c(=O)n3cccc(C)c3nc21 | 2.7
CCc1ccc(-c2csc(NC(=O)COC(=O)CCc3nc4ccccc4s3)n2)cc1 | -0.5
CC(C)(C)N1C(=O)[C@H]2[C@H]3[C@H](O)[C@H](O)C/C(=N/NC(=O)OCc4ccccc4)[C@@H]3CC[C@@H]2C1=O | 3.6[11.7 µM]
COCCNc1ccnc(-c2ccccc2CN(C)C)n1 | -1.1

4 entries already listed, ordered by the number in Menin MLL FP FL, rising.
SMILES | Menin MLL FP FL
CC(C)(C)c1cc(O)c(C(C)(C)C)cc1O | -16
CCC1(c2ccc(OC)cc2)NC(=O)N(C)C1=O (stereo not given) | -3.2
CC(C)(S)[C@H](N)C(=O)O | -0.7
Cc1noc(C)c1-c1nccc(N(C)Cc2ccco2)n1 | 4.1

The list goes on:
SMILES | Menin MLL FP FL
COCCN1C(=O)N[C@@H](CCc2ccccc2)C(C(=O)OC)=C1C | -2.1
CC[C@H](C)[C@H](NC(=O)[C@H](CC(=O)O)NC(=O)[C@H](CC(C)C)NC(=O)[C@H](Cc1cnc[nH]1)NC(=O)[C@H](C)NC(=O)[C@H](Cc1ccccc1)NC(=O)[C@H](Cc1ccc(O)cc1)NC(=O)[C@@H](NC(=O)[C@H](C)NC(=O)[C@H](CCC(=O)O)NC(=O)[C@H](CCCCN)NC(=O)[C@H](CC(=O)O)NC(=O)[C@H](CCSC)NC(=O)[C@H](CC(C)C)NC(C)=O)C(C)C)C(=O)N[C@H](C(=O)N[C@@H](Cc1c[nH]c2ccccc12)C(=O)O)[C@@H](C)CC | -1.0
CC(C)[C@@H](CC(=O)N[C@@H]1CCCC[C@H]1C(=O)N[C@H](CC(=O)N[C@@H](CCC(=O)O)CC(=O)O)Cc1ccccc1)NC(=O)C[C@H](Cc1c[nH]c2ccccc12)NC(=O)[C@@H]1CNCC[C@H]1N | -1.4
COc1ccc(-c2nnc3n2N=C(c2ccc(OC)c(OC)c2)CS3)cc1 | -8.1
C=C1C[C@@]23C[C@@]1(O)CC[C@@H]2[C@]12C=C[C@@H](O)[C@](C)(C(=O)O1)[C@@H]2[C@@H]3C(=O)O | -0.4
COC(=O)C/C=C/[C@@H](C)[C@H](OC)c1c(Br)ccc2c1OCO2 | 6.2
CC(C)(C)C(=O)NCCCC(=O)O | -1.7
CC(C)(C)c1ccc(O)c(N)c1 | 1.0
CS(=O)(=O)N1CCC2(CCN(Cc3ccncc3)CC2)CC1 | -2.6

Four records picked at random from the list so far, as already listed:
SMILES | Menin MLL FP FL
COCCN1C(=O)N[C@@H](CCc2ccccc2)C(C(=O)OC)=C1C | -2.1
COc1ccc(-c2nnc3n2N=C(c2ccc(OC)c(OC)c2)CS3)cc1 | -8.1
CC[C@H](C)[C@H](NC(=O)[C@H](CC(=O)O)NC(=O)[C@H](CC(C)C)NC(=O)[C@H](Cc1cnc[nH]1)NC(=O)[C@H](C)NC(=O)[C@H](Cc1ccccc1)NC(=O)[C@H](Cc1ccc(O)cc1)NC(=O)[C@@H](NC(=O)[C@H](C)NC(=O)[C@H](CCC(=O)O)NC(=O)[C@H](CCCCN)NC(=O)[C@H](CC(=O)O)NC(=O)[C@H](CCSC)NC(=O)[C@H](CC(C)C)NC(C)=O)C(C)C)C(=O)N[C@H](C(=O)N[C@@H](Cc1c[nH]c2ccccc12)C(=O)O)[C@@H](C)CC | -1.0
CC(C)(C)C(=O)NCCCC(=O)O | -1.7

Some of the compounds tested. The share of hits here may be higher or lower than overall.
